GALR2 ag = activates the human galanin receptor 2. GALR2-expressing cells, agonist activation read-out. activation, %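 (tested at 5 µM)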. 140,000 tested, 0.48% active. AID 803;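 active means above mean plus 3 SD of all compounds, about 5% in these data, not always enough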;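 further: 0% = vehicle buffer wells and 100% = reference agonist at full effect; tested in CHO reporter cells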
Target sequence (O43603 whole entry, looked up): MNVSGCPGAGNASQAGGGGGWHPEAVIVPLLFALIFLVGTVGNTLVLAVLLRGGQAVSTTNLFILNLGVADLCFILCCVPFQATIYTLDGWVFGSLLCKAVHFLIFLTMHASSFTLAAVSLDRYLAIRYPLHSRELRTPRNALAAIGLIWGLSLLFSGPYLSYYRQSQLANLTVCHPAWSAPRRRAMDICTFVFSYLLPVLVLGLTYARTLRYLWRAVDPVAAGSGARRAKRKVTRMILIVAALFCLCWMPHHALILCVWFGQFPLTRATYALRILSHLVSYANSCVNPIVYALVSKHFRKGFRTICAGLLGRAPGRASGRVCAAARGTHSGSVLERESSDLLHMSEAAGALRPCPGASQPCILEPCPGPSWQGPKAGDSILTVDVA
HSV augment = HSV replication enhancement; 220,000 tested, 0.005% active; HSV replication augmentation in cells, fold increase; AID 1956; maximum fold increase;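 active means peak rise of 1.5-fold or more in the series; tested in PC3 cells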;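 further: first round at 10 µM; read as green reporter fluorescence; hits show the peak of a series up to 25 µM; 1 = signal of infected wells without compound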
RGS16-Gao = RGS16-Galphao interaction regulator (human); O15492+P09471; binding response (% of control), % at 10 µM; AID 1441; bead-based flow cytometry RGS16-Galphao binding, fluorescence; actives lie on both sides; 220,000 tested, 0.38% active;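 active means below 25% or above 175%, edge rows of some plates excepted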;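 further: Galphao activated by GDP with aluminum fluoride before binding; 100% = wells without compound and 0% = beads without RGS; some results beyond the cut were filed as inactive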
Target sequence (O15492 whole entry, looked up): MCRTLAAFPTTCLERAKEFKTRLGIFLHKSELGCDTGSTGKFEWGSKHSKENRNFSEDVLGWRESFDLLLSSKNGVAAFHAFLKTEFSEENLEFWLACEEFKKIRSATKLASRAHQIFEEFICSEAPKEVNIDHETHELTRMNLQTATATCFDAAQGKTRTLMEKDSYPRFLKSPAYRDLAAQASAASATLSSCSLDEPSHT
Target sequence (P09471 whole entry, looked up): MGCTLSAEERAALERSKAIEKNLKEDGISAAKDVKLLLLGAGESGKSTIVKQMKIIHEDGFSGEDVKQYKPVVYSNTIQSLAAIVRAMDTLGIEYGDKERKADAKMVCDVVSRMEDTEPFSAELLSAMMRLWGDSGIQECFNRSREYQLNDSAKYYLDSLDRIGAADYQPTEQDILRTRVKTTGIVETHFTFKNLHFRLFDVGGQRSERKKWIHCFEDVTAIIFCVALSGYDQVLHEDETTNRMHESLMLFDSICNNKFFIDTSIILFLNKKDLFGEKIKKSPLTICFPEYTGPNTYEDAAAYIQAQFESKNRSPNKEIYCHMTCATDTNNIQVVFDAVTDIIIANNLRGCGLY
PKD1 kinase inh = blocks activity of human protein kinase D1; AID 797; 200,000 tested, 0.056% active; inhibition, %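 (about 10 µM by stock and volumes)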; PKD1 kinase fluorescence polarization assay; Q15139;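 active means inhibition of 50% or more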;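 further: controls were vehicle for no effect and a reference inhibitor for full effect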
Insulin prom inh = TRM-6 insulin promoter activity inhibition; TRM-6 cells (human fetal islet line), insulin promoter-eGFP reporter, imaging; reporter expression induced with tamoxifen; inhibition, % at 2 µM; 130,000 tested, 0.9% active; AID 1273;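 active means inhibition above the mean plus 3 SD, with well images judged a real hit on visual review, cut at about 60% in these data, passing the limit was not always enough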
Insulin prom inh cell count = also measured in Insulin prom inh; calls as there; normalized cell count, %; measured here: cell count, toxicity; reference of the scale not given here;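 cells exposed to compound for 48 h; stained nuclei by imaging scaled within each plate; lower means fewer cells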
HSV augment primary fold = further read-out of HSV augment, marked with its call; fold increase; compound at 10 µM; measured here: primary screen fold increase 10 uM; tested in PC3 cells;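 GFP signal in the first replicate; 1 = infected wells without compound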
Numbers without * were called inactive; i = inactive; . = not tested or not shown; [ ] = remark or other dose.

SMILES	GALR2 ag	HSV augment	HSV augment primary fold	RGS16-Gao	PKD1 kinase inh	Insulin prom inh	Insulin prom inh cell count
O=C(c1ccccc1)c1ccc(OCC(=O)N2CCOCC2)cc1	.	i	1	111	-2	45	83
Cc1cc2c(ncn2C)c(NS(=O)(=O)c2ccc(F)cc2)c1C	.	.	.	168	-5	23	94
COc1ccc(NC(=O)/C(Cl)=C(/Cl)S(=O)(=O)Cc2ccc(C)cc2)cn1	-0.1	i	0.62	i	-7	-223	2
O=C(NCc1csc(-c2ccccc2)n1)c1cc(F)cc2c1OCOC2	.	i	1	102	.	.	.
COc1cccc(C(=O)C2CCCN(Cc3cccn3-c3ccccn3)C2)c1 (configuration not stated)	.	i	0.91	107	-6	.	.
CCOC(=O)N1CCC(NC(=O)CN(C)S(=O)(=O)c2cc3c(cc2Cl)NC(=O)CO3)CC1	-1.4	i	1.1	97	-7	43	129
CCC(C)C(NC(=O)OC(C)(C)C)C(=O)NC(CC(C)C)C(N)=O (configuration not stated)	-2.1	i	1	107	-1	-3	56
O=C(Nc1ccccc1)N1CCN2C(=O)c3ccccc3C12c1ccccc1 (configuration not stated)	-1.2	i	0.86	103	3	.	.
C=CCOC(=O)C(C#N)c1nc2ccccc2nc1N1CCN(Cc2ccc3c(c2)OCO3)CC1 (configuration not stated)	-0.7	i	0.88	95	7	-29	126
Cn1c(N)c(C(=O)COC(=O)[C@@H]2CCCN2S(=O)(=O)c2ccc(Cl)cc2)c(=O)n(C)c1=O	.	i	0.78	102	-7	44	79
CCN1CCN(C(=O)c2ccc(CS(=O)(=O)Cc3ccccc3F)o2)CC1	-1.3	i	1.1	109	-8	-38	58
CCCOC(=O)CN1C(=O)c2ccc(C(=O)OCCC)cc2C1=O	-1.3	i	0.99	81	-3	-35	131
Cc1ccc(C(c2c(C)[nH][nH]c2=O)c2c(C)[nH][nH]c2=O)cc1[N+](=O)[O-]	-0.7	i	0.98	98	-10	19	129
O=C(Nc1ccccc1C(=O)NCCN1CCOCC1)c1ccco1	-1.4	i	1	139	-10	-44	137
O=C(NN1C(=O)C2C3C=CC(C3)C2C1=O)c1ccco1 (configuration not stated)	-0.2	i	0.91	110	-4	50	126
COc1ccc(N(CC(=O)N2c3ccccc3CC2C)S(=O)(=O)c2c(C)noc2C)cc1 (configuration not stated)	-1.4	i	0.77	96	-3	-80	141
Cc1nnc(NC(=O)c2csc3c2CCCC3)s1	.	i	0.89	103	-12	-25	162
Cc1nc(Cl)nc(N(C)c2ccccc2)c1[N+](=O)[O-]	.	i	1.1	100	.	.	.
CCC(=O)N(CCC1(C(C)C)CCOC(C)(C)C1)Cc1ccco1 (configuration not stated)	-0.1	i	0.79	101	-3	-11	39
Cc1ccc2cc3c(NC(=O)c4ccco4)nn(C)c3nc2c1	0.5	.	.	101	8	.	.

Taken from above.
COc1ccc(NC(=O)/C(Cl)=C(/Cl)S(=O)(=O)Cc2ccc(C)cc2)cn1 – Insulin prom inh cell count = 2
CCC(C)C(NC(=O)OC(C)(C)C)C(=O)NC(CC(C)C)C(N)=O (configuration not stated) – RGS16-Gao = 107

Continued:
SMILES	GALR2 ag	HSV augment	HSV augment primary fold	RGS16-Gao	PKD1 kinase inh	Insulin prom inh	Insulin prom inh cell count
Cc1ccc(Sc2ccc(/C=N/O)cc2[N+](=O)[O-])cc1	-2.2	i	1.1	97	4	7	103
Cc1cccnc1NC(=O)Nc1cccc2ccccc12	0.1	i	1	93	-8	13	56
CS(=O)(=O)N(Cc1nnc(-c2cccs2)o1)c1ccc(Cl)cc1F	-1.0	i	0.94	106	-4	-7	101
Cc1cccc(C(=O)N[C@H](C(=O)Nc2ccc(S(=O)(=O)NC3=NCCCCC3)cc2)C(C)C)c1	.	i	0.86	98	-2	.	.
O=c1[nH]cc(NCCNc2ncc(C(F)(F)F)cc2Cl)c(=O)[nH]1	.	i	0.93	104	-4	12	118
CC(C)c1cc(CNC(=O)CCc2nnc(CCCc3ccccc3)o2)on1	.	i	0.96	101	-3	-17	145
NS(=O)(=O)c1ccc(CCNS(=O)(=O)c2cccc(C(=O)O)c2)cc1	.	i	0.87	98	.	.	.
Cc1cccc(NC(=S)NC2CC3CCCC(C2)N3CC(C)C)c1 (configuration not stated)	-0.1	i	0.94	107	2	-176	88
Cc1ccc(S(=O)(=O)C2(S(=O)(=O)c3ccc(C)cc3)CC2)cc1	.	i	1.1	110	.	.	.
CCOC(=O)c1c2c3c(cccc3[nH]c1=O)C(=O)c1ccccc1-2	.	i	1.1	99	2	.	.
Cn1c(N)c(C(=O)N/N=C/c2ccccc2)sc1=S	.	i	0.77	102	.	.	.
Clc1ccc2c(N/N=C/c3ccccc3Br)ccnc2c1	2.2	i	0.67	106	3	.	.
COc1ccccc1NC(=O)CSc1ccc2nnc(-c3ccncc3)n2n1	-0.8	i	0.87	99	-5	.	.
FC(F)(F)c1cccc(Cc2noc(CN3CCC(N4CCCCC4)CC3)n2)c1	.	i	1	113	-6	.	.
CCn1nc(C(=O)OCC(=O)c2ccc(F)cc2)c2ccccc2c1=O	.	i	1	101	-3	20	97
Cc1ccc(S(=O)(=O)NNC(=O)c2ccc(O)cc2)cc1	-1.4	i	1.1	73	-3	.	.
N/C(=N\OC(=O)CCC1CCCC1)c1ccncc1	.	i	1.1	99	-4	-67	62
Cc1ccc(SCc2noc(-c3c(C)noc3C)n2)cc1	.	i	0.77	101	.	.	.
C/C=C/C=C/C(=O)Nc1nccs1	-0.8	i	0.99	108	-15	3	51
COc1ccc(-c2nn(CCC#N)cc2C=C(C#N)C#N)cc1	.	i	0.87	97	.	.	.
COc1ccc(Cc2nnc(SCc3nc4ccccc4c(=O)[nH]3)o2)cc1	-3.0	i	0.74	92	-4	-407	55
COc1ccccc1Oc1ccccc1[N+](=O)[O-]	.	i	0.97	101	.	.	.
COc1ccc(C(=O)Nc2cc(Cl)ccc2OC(=O)c2ccc(OC)cc2)cc1	-0.7	i	0.78	105	0	.	.
O=[N+]([O-])c1ccc(O)c(C=Nc2cccc3ncccc23)c1	.	i	1.1	88	-10	25	54
Cc1ccc(C#CC[N+]2(CC#Cc3ccc(C)cc3)CCCCC2)cc1	-1.1	i	0.74	105	-2	-46	97
Cc1ccc(S(=O)(=O)NCC2CCC(C(=O)O)CC2)cc1 (configuration not stated)	-2.1	i	1.1	93	-5	-21	57
CC(C)Cn1c(N)c(C(=O)COC(=O)c2ccccc2F)c(=O)n(C)c1=O	.	i	1.1	142	6	9	89
COC(=O)c1ccc(CNC(=O)COC(=O)C2CCC(C(C)(C)C)CC2)cc1 (configuration not stated)	-0.5	i	1	107	-1	-31	155
COC(=O)c1sccc1NC(=S)NCc1ccc(Cl)cc1	.	i	0.98	99	.	.	.
O=C(CCn1cnnn1)Nc1ccccc1F	.	i	1	101	1	.	.

In a second layout: 21 of the compounds above
Each structure is followed by: GALR2 ag, HSV augment, HSV augment primary fold, RGS16-Gao, PKD1 kinase inh, Insulin prom inh, Insulin prom inh cell count
CCOC(=O)c1c2c3c(cccc3[nH]c1=O)C(=O)c1ccccc1-2
→ ., i, 1.1, 99, 2, ., .
Cn1c(N)c(C(=O)N/N=C/c2ccccc2)sc1=S
→ ., i, 0.77, 102, ., ., .
Clc1ccc2c(N/N=C/c3ccccc3Br)ccnc2c1
→ 2.2, i, 0.67, 106, 3, ., .
COc1ccccc1NC(=O)CSc1ccc2nnc(-c3ccncc3)n2n1
→ -0.8, i, 0.87, 99, -5, ., .
FC(F)(F)c1cccc(Cc2noc(CN3CCC(N4CCCCC4)CC3)n2)c1
→ ., i, 1, 113, -6, ., .
CCn1nc(C(=O)OCC(=O)c2ccc(F)cc2)c2ccccc2c1=O
→ ., i, 1, 101, -3, 20, 97
Cc1ccc(S(=O)(=O)NNC(=O)c2ccc(O)cc2)cc1
→ -1.4, i, 1.1, 73, -3, ., .
N/C(=N\OC(=O)CCC1CCCC1)c1ccncc1
→ ., i, 1.1, 99, -4, -67, 62
Cc1ccc(SCc2noc(-c3c(C)noc3C)n2)cc1
→ ., i, 0.77, 101, ., ., .
C/C=C/C=C/C(=O)Nc1nccs1
→ -0.8, i, 0.99, 108, -15, 3, 51
COc1ccc(-c2nn(CCC#N)cc2C=C(C#N)C#N)cc1
→ ., i, 0.87, 97, ., ., .
COc1ccc(Cc2nnc(SCc3nc4ccccc4c(=O)[nH]3)o2)cc1
→ -3.0, i, 0.74, 92, -4, -407, 55
COc1ccccc1Oc1ccccc1[N+](=O)[O-]
→ ., i, 0.97, 101, ., ., .
COc1ccc(C(=O)Nc2cc(Cl)ccc2OC(=O)c2ccc(OC)cc2)cc1
→ -0.7, i, 0.78, 105, 0, ., .
O=[N+]([O-])c1ccc(O)c(C=Nc2cccc3ncccc23)c1
→ ., i, 1.1, 88, -10, 25, 54
Cc1ccc(C#CC[N+]2(CC#Cc3ccc(C)cc3)CCCCC2)cc1
→ -1.1, i, 0.74, 105, -2, -46, 97
Cc1ccc(S(=O)(=O)NCC2CCC(C(=O)O)CC2)cc1 (configuration not stated)
→ -2.1, i, 1.1, 93, -5, -21, 57
CC(C)Cn1c(N)c(C(=O)COC(=O)c2ccccc2F)c(=O)n(C)c1=O
→ ., i, 1.1, 142, 6, 9, 89
COC(=O)c1ccc(CNC(=O)COC(=O)C2CCC(C(C)(C)C)CC2)cc1 (configuration not stated)
→ -0.5, i, 1, 107, -1, -31, 155
COC(=O)c1sccc1NC(=S)NCc1ccc(Cl)cc1
→ ., i, 0.98, 99, ., ., .
O=C(CCn1cnnn1)Nc1ccccc1F
→ ., i, 1, 101, 1, ., .

(next part)
SMILES	GALR2 ag	HSV augment	HSV augment primary fold	RGS16-Gao	PKD1 kinase inh	Insulin prom inh	Insulin prom inh cell count
Cc1ccc(NC(=S)NC2CC3CCCC(C2)N3Cc2cccs2)cc1 (configuration not stated)	-2.9	i	0.8	103	-2	.	.
N#C/C(C(=O)N1CCCC1)=C1/N=C(N)c2ccccc21	-1.0	i	0.98	89	4	-33	103
C/C(CC(C)(C)c1ccccc1)=N\NS(=O)(=O)c1ccccc1	.	i	0.85	104	-5	.	.
CCOC(=O)Cc1csc(NS(=O)(=O)c2ccc(SC)cc2)n1	.	i	0.84	102	-4	-114	127
COc1cc(-c2noc(-c3cccc(Cl)c3)n2)cc(OC)c1OC	-0.9	i	0.8	104	-6	-14	89
COC(=O)[C@H](C)[C@H]1C[C@]1(C)[C@H](NC(=O)OCc1ccccc1)c1ccccc1	-1.7	i	0.87	36	7	20	103
O=C(c1cccs1)N(Cc1ccccn1)Cc1ccco1	-1.5	i	0.95	93	-9	-67	60
CNC(=S)N/N=C/c1ccc(OCC(=O)Nc2c(C)cc(C)cc2C)c(OC)c1	-0.3	i	1.2	105	-7	.	.
c1ccc(CNc2ncnc3c2oc2ccccc23)nc1	-1.3	i	0.91	102	6	41	202
CC(C)(C)c1nnc2sc(SC/C(O)=C(\C#N)c3nc4ccccc4[nH]3)nn2c1=O	-2.2	i	1	178*[activator]	-3	.	.
CCCCOc1ccc(C(O)(CC)CCN2CCOCC2)cc1 (configuration not stated)	-0.7	i	0.93	.	-8	29	107
COc1ccc(CC(=O)c2ccc(OC)c(OC)c2C)cc1OC	-1.9	i	0.95	103	-6	19	156
COc1cc(S(=O)(=O)Nc2ccccc2C)ccc1Cl	-4.3	i	0.89	102	4	12	147
O=C(Nc1nonc1NC(=O)c1cccs1)c1cccs1	.	i	1	127	2	58	70
Clc1nnc(N2CCCCC2)c2ccccc12	.	i	0.87	101	-2	41	96
CCOc1ccccc1CNC(=O)Cn1c(=O)oc2ccccc21	-2.1	i	1	114	-6	.	.
CN(CC(=O)Nc1ccc(F)c(F)c1F)C(=O)/C=C/c1ccc(Cl)cc1	-1.8	i	0.89	103	-6	.	.
Cc1ccccc1OCC1Cc2c(nc(N)c(C#N)c2N)O1 (configuration not stated)	-0.1	i	0.98	102	8	35	87
CCOC(=O)c1cc(C)sc1NC(=O)C1CCC1	-2.4	i	0.94	101	-5	88*	161*
Cc1ccccc1OCCSc1nnc(C)n1-c1ccccc1	-4.7	i	0.93	117	1	-22	86
S=c1[nH]nc(-c2cccs2)n1/N=C/c1cn(-c2ccccc2)nc1-c1cccs1	.	i	0.85	99	.	.	.
Cc1ccc(C)c(N2CCN(C(=O)CSc3ccsc3[N+](=O)[O-])CC2)c1	-2.1	i	1.1	102	-9	.	.
